PV pol inh – poliovirus RNA polymerase inhibition; P03300; poliovirus polymerase elongation, fluorescence polarization; stronger effect = lower value; % elongation, % (compound at 16.7 µg/mL); 0.66% of 150,000 active; in the data active = % elongation below about 90%; note: some results filed as inactive read as strong as hits
MbtI inh – inhibitors of Mycobacterium tuberculosis siderophore enzyme MbtI. inhibition, %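 (about 17 µg/mL by stock and volumes)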. 0.89% of 100,000 active. purified MbtI enzyme, fluorescence intensity read-out. P9WFX0;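 active = above 50% in both replicates, above 80% if mildly self-fluorescent; inactive = the rest, strongly fluorescent compounds included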;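 note: 0% = mean of negative and 100% = mean of positive controls; one replicate is shown; some compounds called inactive have numbers as strong as hits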
Target sequence (P9WFX0 whole entry, looked up): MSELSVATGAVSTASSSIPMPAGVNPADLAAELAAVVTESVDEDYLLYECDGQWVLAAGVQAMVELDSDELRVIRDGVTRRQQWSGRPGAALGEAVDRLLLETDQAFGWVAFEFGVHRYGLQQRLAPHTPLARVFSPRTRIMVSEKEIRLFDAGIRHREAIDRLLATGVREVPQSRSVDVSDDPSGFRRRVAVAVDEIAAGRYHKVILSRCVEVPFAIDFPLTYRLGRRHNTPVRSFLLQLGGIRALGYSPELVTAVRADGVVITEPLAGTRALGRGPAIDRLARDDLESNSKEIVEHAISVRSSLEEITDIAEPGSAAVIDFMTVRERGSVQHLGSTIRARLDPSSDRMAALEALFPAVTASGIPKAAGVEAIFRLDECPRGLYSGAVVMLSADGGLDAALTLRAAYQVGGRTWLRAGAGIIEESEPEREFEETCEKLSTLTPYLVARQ
Mtb MenB inh – inhibitors of Mycobacterium tuberculosis MenB enzyme; MenB enzyme assay, absorbance read-out; some hits fall short of the stated cut; inhibition, %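 (about 12 µg/mL by stock and volumes)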; AID 540299; P9WNP5; 0.43% of 100,000 active;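 active = mean of two replicates above 30%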;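 note: 0% = no compound and 100% = wells with inactive enzyme; the first replicate is given; strong numbers were not always called active; inactives centre near -10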
Target sequence (P9WNP5 whole entry, looked up): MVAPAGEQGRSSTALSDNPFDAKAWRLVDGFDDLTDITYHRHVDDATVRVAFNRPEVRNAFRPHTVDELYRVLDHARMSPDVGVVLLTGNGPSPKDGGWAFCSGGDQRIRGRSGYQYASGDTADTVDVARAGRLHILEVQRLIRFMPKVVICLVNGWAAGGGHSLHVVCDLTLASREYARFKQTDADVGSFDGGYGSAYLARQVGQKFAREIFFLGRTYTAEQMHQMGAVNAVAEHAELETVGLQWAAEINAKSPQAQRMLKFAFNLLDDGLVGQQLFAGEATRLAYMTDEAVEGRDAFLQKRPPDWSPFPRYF
PV pol inh intensity – further read-out of PV pol inh, marked with its call; % elongation; measured here: total intensity read-out; formula for this scale not given here;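 total fluorescence in place of polarization; lower means less elongation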
An asterisk follows results filed as active; i = inactive; . = not tested or not shown; & = joins results of further samples.

SMILES	PV pol inh	PV pol inh intensity	MbtI inh	Mtb MenB inh
Cc1cc(-c2ccc(S(=O)(=O)NCCc3ccccc3)cc2)on1	105	103	-17	-21
CC1CCCN(C(=O)COc2ccc(-c3nc4ccccc4s3)cc2)C1 (stereo not given)	102	103	0	.
O=c1[nH]c2ccc(NS(=O)(=O)c3ccc(Br)cc3)cc2[nH]1	103	96	-6	-9
N#C/C(C(=S)Nc1ccccc1)=C1/NN=C(N2CCOCC2)N1c1ccccc1	104	109	34	-30
CN(C)c1ccc(/C=C/C=c2\sc3nc4ccccc4n3c2=O)cc1	114	136	-7	-27
CNC(=O)COC(=O)c1c2c(nc3ccccc13)CCCC2	101	100	18	-1
O=C(NC1CCCC1)C1c2ccccc2C(=O)N2CCc3ccccc3C12 (stereo not given)	102	103	-8	-3
COc1ccc(C(=O)OCC(=O)Nc2sc3c(c2C#N)CCC3)cc1OC	120	128	.	-3
Cc1ccc(C)c(SCC(=O)Nc2cc(C)nn2-c2ccc(F)cc2)c1	101	96	-2	.
CSc1ccc(S(=O)(=O)NC2CC2)cc1	100	103	3	-17
CCN1C(=O)C(=Cc2cccn2-c2ccc(O)cc2)C(=O)N(CC)C1=S	101	105	0	-9
CCn1c(CNC(=O)CSc2nnc(C)n2-c2ccc(C)cc2)cc2ccccc21	100	102	-2	10
CC(C(=O)NN)n1nnc(-c2cc(C(F)(F)F)cc(C(F)(F)F)c2)n1 (stereo not given)	102	106	-2	-13
COC(=O)c1cnn(-c2c(Cl)cccc2Cl)c1C=C(C#N)C#N	99	98	-9	-38
Cn1cnnc1SCC(=O)c1ccccc1	104	102	-11	-24
O=C(NCC(c1ccc[nH]1)C(F)(F)F)Nc1ccccc1 (stereo not given)	104	113	-12	9
CCOc1ccc(CCCN)cc1OCC	102	102	-2	2
CN(CC1COc2ccccc2O1)S(=O)(=O)c1csc(C(N)=O)c1 (stereo not given)	102	101	-18	-27
NC(N)=NCCN1CCCCCCC1	101&99	102&101	-19&-6	-18&2
CCCCOC(=O)c1ccc(N2C(=O)CC(N3CCC(C(N)=O)CC3)C2=O)cc1 (stereo not given)	107	101	0	-38
N#CC1(NC(=O)CSc2nnnn2-c2ccc(OC(F)(F)F)cc2)CCCC1	103	108	-7	-19
CCn1c(C)[n+](CC)c2ccc(S(=O)(=O)NC)cc21	103	104	-5	-13
CCC(Sc1ncccc1C(=O)O)C(=O)N1CCCC1 (stereo not given)	99	94	-1	-11
O=C(Oc1ccc(Br)cc1F)C1CC(=O)N(c2ccc3c(c2)OCCO3)C1 (stereo not given)	87*	93*	2	-33
O=C(NC1CC1)C1Cc2ccccc2CN1S(=O)(=O)c1ccc(F)cc1 (stereo not given)	102	103	-16	.
O=C(CC(c1ccccc1)c1ccccc1)NC1CCCC1	104	107	.	-6
CC(C)CCn1c(=O)c2ccccc2n2c(CCC(=O)N3CCC(C(N)=O)CC3)nnc12	103	103	0	-8
CCOC(=O)C(C#N)c1c(F)c(F)c(Br)c(F)c1F (stereo not given)	103	102	-6	.
CC(NC(=O)CN1CCc2ccccc2C1)c1ccccc1 (stereo not given)	102	108	-12	-3
COc1ccc(N2CCN(C(=O)COC(=O)Cn3c(C)csc3=O)CC2)cc1	100	108	3	7
CCOC(=O)c1sc2nc3c(cc2c1N)CN(C)CC3	100	101	6	-22
O=C(Oc1cc(OC(=O)c2ccco2)cc(OC(=O)c2ccco2)c1)c1ccco1	102	91	.	-29
O=C(CN1C(=O)c2ccccc2S1(=O)=O)N1N=C(c2ccc(Cl)cc2)CC1c1ccco1 (stereo not given)	102	106	99	-15
C(#CC1(N2CCOCC2)CCCCC1)c1ccccc1	101	102	-14	-6
Cc1nn(C2CCS(=O)(=O)C2)c2nc(C3CC3)cc(C(=O)O)c12 (stereo not given)	102	108	102	11
COCCn1cnnc1SCC(=O)c1ccc(S(=O)(=O)N2CCCC2)cc1	103	110	-2	-16

As entered above.
PV pol inh with CC1CCCN(C(=O)COc2ccc(-c3nc4ccccc4s3)cc2)C1 (stereo not given) : 102
PV pol inh intensity with CCn1c(C)[n+](CC)c2ccc(S(=O)(=O)NC)cc21 : 104
MbtI inh with CN(C)c1ccc(/C=C/C=c2\sc3nc4ccccc4n3c2=O)cc1 : -7
PV pol inh with COc1ccc(N2CCN(C(=O)COC(=O)Cn3c(C)csc3=O)CC2)cc1 : 100
MbtI inh with CC(C(=O)NN)n1nnc(-c2cc(C(F)(F)F)cc(C(F)(F)F)c2)n1 (stereo not given) : -2
PV pol inh with CCCCOC(=O)c1ccc(N2C(=O)CC(N3CCC(C(N)=O)CC3)C2=O)cc1 (stereo not given) : 107
Mtb MenB inh with O=C(Oc1cc(OC(=O)c2ccco2)cc(OC(=O)c2ccco2)c1)c1ccco1 : -29

More entries follow.
SMILES	PV pol inh	PV pol inh intensity	MbtI inh	Mtb MenB inh
On1nnc2cc(C(F)(F)F)ccc21	104	100	0	.
CCOc1ccc(CC(=O)NN2CCOCC2)cc1OCC	101	100	-9	-13
Cc1ccc(CN2C(=O)CSc3ccc(NC(=O)Nc4cccc5ccccc45)cc32)cc1	102	104	9	-26
CCOc1ccc(CN2CCN(C(=O)c3ccco3)CC2)cc1	99	100	-13	-1
Cc1ccc2c(CN(C)Cc3ccccc3)cc(=O)oc2c1	102	102	10	0
CCO/C(C)=N\Oc1cc(=O)oc2ccccc12	100	103	-12	-15
N#Cc1c(-c2ccco2)c2c([nH]c1=S)CCC2	162	175	82	-45
O=C(Nc1ccccc1C(=O)NC1CCCCC1)c1ccco1	103	106	-4	-7
O=C1c2ccccc2-c2nn(C(=O)c3cc4c(s3)CCC4)c3cccc1c23	101	112	-6	-7
CC(=O)N1CCc2cc(S(=O)(=O)N3CCCCC3C)ccc21 (stereo not given)	100	101	-3	-10
CCn1c(=O)cc(OCC(=O)N2CCN(c3ccccc3)CC2)c2ccccc21	100	103	-4	-12
Cc1csc(=O)n1CC(=O)O	.	.	-6	-4
CN1[C@@H](CC(=O)c2ccccc2)CCC[C@H]1C[C@H](O)c1ccccc1	99	102	-13	-10
Oc1cccc(C=NCc2ccccc2)c1	98	101	-2	19
Cn1ccnc1C(=O)c1cc(=O)c2ccccc2o1	102	105	-3	.
COc1ccc(-c2c(C#N)nnn2-c2cc(C(F)(F)F)cc(C(F)(F)F)c2)cc1	105	104	-13	-14
N#C/C(=C\c1ccc(-c2cc(C(F)(F)F)ccc2Cl)o1)C(=O)O	102	102	32	-45
CC(O)c1nc2ccc(Oc3ccc4nc(C(C)O)[nH]c4c3)cc2[nH]1 (stereo not given)	103	127	-5	-40
COc1ccc(-c2nc3cccc(C)n3c2NC(C)(C)C)cc1O	103	99	i	-40
Cn1c2ccc(Br)cc2c2nnc(SCC(=O)N=C3NC(=O)CS3)nc21	103	101	14	-15
Cc1ccc(C(c2c(O)ccc3ccccc23)N2CCOCC2)o1 (stereo not given)	111	109	90	-16
S=c1sc2ccccc2n1CN1CCCCC1	103	102	66	1
CC1CN(/C(N)=N/S(=O)(=O)c2ccc(Cl)c(Cl)c2)CC(C)O1 (stereo not given)	107	109	-5	-11
CN(Cc1ccc(Br)s1)Cn1nnc(-c2ccccc2)n1	100	103	-4	13
CC1CN2CCC3=C(CCCC3)C2(C)C1 (stereo not given)	102	101	-16	-46
N#CC(C(N)=O)=C1CCCCCC1	105	107	-11	.
O=c1[nH]c2sc3c(c2c2nc(-c4cc(-c5ccccc5)nn4-c4ccccc4)nn12)CCC3	104	114	-10	-33
C1=C(CCNc2nn3nnnc3c3ccccc23)CCCC1	100	101	25	0
O=C(c1ccccc1)c1sc(Nc2ccc3c(c2)OCCO3)nc1-c1ccccc1	106	111	3	-24
CCn1c(C)c(C(=O)O)c2cc(OC)ccc21	103	102	90	-48
COc1ccc(NS(=O)(=O)/C=C/c2ccccc2)cc1	108	109	6	-1
COc1cccc(C(=O)Nc2noc3ccccc23)c1	103	104	20	9
C=CCSc1nnc(-c2ccc(C(C)(C)C)cc2)n1Cc1ccco1	101	101	6	-23
CC(=O)N1CCC(N(Cc2ccco2)C(=O)NC23CC4CC(CC(C4)C2)C3)CC1	101	103	-16	-6
Cc1ccc(S(=O)(=O)CCC#N)cc1C	98	104	-16	-73
O=c1c2c3c(sc2nc2sc(C4CC4)nn12)CCCC3	99	103	9	6
CC(C)N1CCC2(CC1)C(C#N)=C(O)NC1=C2C(=O)CC(C)(C)C1	44	240	.	-71
Cc1cc2[nH]c(=S)[nH]c2cc1C	97	102	98	5
C/C(=N\NC(N)=O)C1CC(c2ccccc2)C(=O)O1 (stereo not given)	101	99	-1	-38
CC(C)c1cccc(C(C)C)c1OCCNCCO	101	102	-3	-16
CCCC(=O)Nc1nc(C(=O)OCC)cs1	100	103	-1	-1
c1ccc(-n2cc3c(c2)CCc2cn(-c4ccccc4)cc2CC3)cc1	101	103	.	-6
CC(=O)N1CCc2cc(S(=O)(=O)CCC(=O)Nc3c(C)cccc3C)ccc21	103	103	15	0
O=c1n(S(=O)(=O)c2ccccc2)c2ccccc2n1S(=O)(=O)c1ccccc1	101	95	.	-1
Cc1cc(NC(=O)Nc2ccc3c(c2)OCCO3)c(C(F)(F)F)o1	99	97	0	1
CN1/C(=C\P(=S)(N2CCOCC2)N2CCOCC2)C(C)(C)c2ccccc21	103	110	0	9
O=C(NCCc1ccc(O)c(O)c1)C(F)(F)F	101	96	85*	.
Cc1cc(C)nc(SCC(=O)Nc2nc(=O)c3ccccc3s2)n1	104	100	-4	-39
Cc1ccccc1C(=O)Nc1c(C(=O)N2CCOCC2)oc2ccccc12	101	97	20	7
C=Cc1c(C)c2cc3nc(cc4[nH]c(cc5nc(cc1[nH]2)C(C)=C5CCC(=O)O)c(CCC(=O)OC)c4C)[C@@]1(C)C3=CC=C(C(=O)OC)C1C(=O)OC (stereo not given in full) (tested in a mixture with another compound)	100	100	0	2
COc1cc(OC)c(-c2nc(-c3ccccc3)c(-c3cccs3)[nH]2)cc1OC	101	100	106	-48
CS(=O)(=O)c1sc(C(=O)NC(=S)Nc2ccc(OC(F)(F)F)cc2)c2c1C=CCC2	95	113	24	-33
CC1CC(C)CN(C(=O)CSc2nnc(-c3ccccc3)o2)C1 (stereo not given)	102	98	2	10
CC1(C)OC(=O)C(=CNC(C(=O)O)c2ccccc2)C(=O)O1 (stereo not given)	102	101	30	6
CN1C(=O)Cc2ccccc21	98	101	2	-23
CC(=O)Oc1cn(OC(C)=O)c2ccc(Br)cc12	103	99	-15	-16
Cc1ccc(NC(=O)COc2ccccc2C(N)=O)cc1F	109	112	-16	1
Cc1ccc(N2COc3ccc4c5c(c(=O)oc4c3C2)CCC5)cc1	102	101	-148	-22
CC1=C(c2ccccc2)S(=O)(=O)NC1=NC1CCCCC1C (stereo not given)	102	104	7	-7
O=C(CSc1nc(C2CC2)nc2ccccc12)N1CCCCC1	98	100	-1	-12

Three successive entries out of the list so far:
SMILES	PV pol inh	PV pol inh intensity	MbtI inh	Mtb MenB inh
Cc1ccc(N2COc3ccc4c5c(c(=O)oc4c3C2)CCC5)cc1	102	101	-148	-22
CC1=C(c2ccccc2)S(=O)(=O)NC1=NC1CCCCC1C (stereo not given)	102	104	7	-7
O=C(CSc1nc(C2CC2)nc2ccccc12)N1CCCCC1	98	100	-1	-12

More compounds.
SMILES	PV pol inh	PV pol inh intensity	MbtI inh	Mtb MenB inh
Oc1ccc(-n2ccnc2)cc1	99	105	-13	-1
CC(C)(C)NC(=S)Nc1cc(C(F)(F)F)ccc1N1CCCCC1	105	109	6	-7
C=CCn1cc(C(=O)NCC(OC)OC)c(=O)c2cc(S(=O)(=O)N3CCC(C)CC3)ccc21	100	101	-3	-4
CC(C)C(NS(=O)(=O)c1cccc2nsnc12)C(=O)O (stereo not given)	97	100	13	10
COc1ccc(Br)cc1/C=N/n1cnnc1	102	102	6	-21
CC(C)c1cc(C(C)C)c(S(=O)(=O)NCc2ccccc2)c(C(C)C)c1	102	106	-7	-26
CCCCC(=O)NCc1ccc(F)cc1	100	102	-8	-14
